BJeLR lethal: MLPCN primary cell-based screen for lethality selective to Ras in HRASV12 cells; BJeLR (HRASV12) viability, CellTiter-Glo ATP luminescence, 48 h; reference of the scale not given here; 300,000 tested, 0.17% active; AID 1554, 2009; inhibition, % (no concentration beside the values);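 active = replicate mean above 50%; inconclusive = above 50% but judged a plate artefact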;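 also: 50 nL library stock added to about 25 µL; numbers are from one replicate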
PrP 5UTR inh: inhibition of PrP 5' UTR reporter expression | inhibition, % (test concentration not listed) | 340,000 tested, 0.35% active | cell-based PrP 5' UTR mRNA reporter, plate reader;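 active = every replicate at 50% or more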;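 also: 0 = median of the neutral control wells; tested in H4 reporter cells; numbers are from one replicate; inactives centre near -14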
Bead autofluor: counter-screen for toxin protease inhibitors: compound fluorescence. compound autofluorescence counterscreen, microsphere flow cytometry; active compounds read high. fluorescence intensity (no concentration beside the values). 360,000 tested, 3.1% active. AID 624483;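 active = at least 3 SD above the mean of all compounds, about 16000 in these data; inconclusive = too few beads counted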;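 also: 100 nL of 1 mM stock went into each well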
Mtb hypoxia rep: PubChem AID 1159583. M. tuberculosis hypoxia-regulated fluorescent reporter, fluorescence. fluorescence inhibition, % (no concentration beside the values). 300,000 tested, 0.1% active;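 active = 35 to 45% if threefold the growth effect, above 45% if 1.5-fold the growth effect; inactive = the rest, general growth blockers included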;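 also: wells of about 50 µL received 100 nL stock; 0% = vehicle wells and 100% = reference inhibitor wells; whole bacteria with a GFP reporter of the hypoxia response; strong numbers were not always called active; many hits fall short of the cut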
RN4220 kill: growth inhibition of S. aureus RN4220, primary screen, OD600; 16 h; inhibition, % (no concentration beside the values); 330,000 tested, 0.33% active; AID 1259311, 2017;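 active = z-score of -3 or lower and OD600 up to 0.18 on both plates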;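 also: plate controls were untreated cells for no effect and reference antibiotic for full effect; stock transfer was 100 nL into about 80 µL; one replicate is shown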
ugtP null kill: growth inhibition of ugtP-null S. aureus, primary screen, RN4220 ugtP deletion, OD600; growth inhibition, % (concentration not given with the values); 16 h; some inactives read as strong as hits; AID 1259309, 2017; 330,000 tested, 0.54% active;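 active = z-score under -3 and OD600 up to 0.15 on both plates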;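 also: plate controls were untreated wells for no effect and antibiotic for full effect; wells of about 80 µL received 100 nL stock; the first replicate is given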
Mtb hypoxia rep growth: second read-out of Mtb hypoxia rep, no call of its own (marks repeat the call); growth inhibition, %; measured here: M. tuberculosis growth (absorbance);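 0% = vehicle and 100% = reference antibiotic; read after six days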
* hit, by the source's call; ? = inconclusive; · = no result given; & = joins results of further samples.

SMILES	BJeLR lethal	PrP 5UTR inh	Bead autofluor	Mtb hypoxia rep	Mtb hypoxia rep growth	RN4220 kill	ugtP null kill
CCN(CC(=O)NCc1cccs1)C(=O)c1ccc(NS(=O)(=O)c2ccc(F)cc2)cc1	3	-17	6260	-5	5	1.3	1
C/C(=N\NC(=O)c1ccc(Cn2cc(Br)cn2)o1)c1cccc(NC(=O)C(C)C)c1	15	-13	1911	·	·	·	·
COc1ccc(S(=O)(=O)N2CCCC2)cc1OC	-6	-16	3173	-6	-2	-3.4	-2
Cc1cccc(NC(=O)CCNS(=O)(=O)c2cc(Br)cnc2N)c1C	1	-3	4747	-1	0	0.2	-5
O=C(Nc1ccccc1F)c1cc(Cl)sc1Cl	-2	·	4209	9	1	5.5	0
OCCC1CC(O)C(O)[C@]2(Cc3ccccc3O2)O1 (stereo not given in full)	·	·	·	12&-13&14	9&3&11	7.3&-0.1&1.1	6&-2&-11
CNC(=S)N(C1=NCC(c2ccc([N+](=O)[O-])cc2)S1)c1ccccc1 (stereo not given)	8	-33	3803	10	15	0.2	-7
Cc1cc(NC(=O)c2ccc(S(=O)(=O)N(C)C)cc2)n(-c2ccccn2)n1	2	-13	8628	11	7	4.4	-7
CCN(c1ccccc1)S(=O)(=O)c1ccc(N2CCN(c3ccccc3O)CC2)nc1	·	-57	3711	19	8	1.9	-11
CCOC(=O)C1C2COc3ccc(Br)cc3C2N2C(=O)N(c3cccc(C)c3)C(=O)[C@]12C (stereo not given in full)	·	·	·	13&11	4&7	3.1&2.5	6&-22
O=C(Nc1ccc2[nH]c(=O)[nH]c2c1)C(F)(F)F	-10	-26	3262	10	1	0.4	2
COC(=O)Nc1ccc2c(c1)ncn2C1CCCCC1	-2	-15	?	15	2	7.1	9
Cc1ccc(Cn2c(C)c3cnn(CC(=O)N4CCC5(CC4)OCCO5)c(=O)c3c2C)cc1	6	-3	?	10	8	-12	-35
CN1CCN(C(=O)C2=CC(c3ccc(Br)cc3)CC(OCc3ccc(CO)cc3)O2)CC1 (stereo not given)	·	·	·	6	-2	-3.9	-2
C/C(=N\NC=O)c1ccncc1	-6	-14	3309	·	·	·	·
CCOC(=O)C(C(=O)OCC)C(CC(=O)C1CC1)c1ccccc1 (stereo not given)	-1	-29	2420	·	·	1.2	19
O=C(c1ccc(N2CCCCCC2)c([N+](=O)[O-])c1)N1CCC2(CC1)OCCO2	2	4	4094	-1	14	3.9	0
Cc1cccc(NC(=O)CSc2nnc(CCC(=O)Nc3ccc(C)c(Cl)c3)n2C)c1	-3	-20	6875	3	-6	2.8	-7
Cc1cccc(OCCNC(=O)c2ccc(Oc3ccc(C(F)(F)F)cc3[N+](=O)[O-])cc2)c1	-4	-12	4360	4	6	-5.9	-11
C=CCOc1ccc(/C=C/C(=O)OCC(=O)N2CCN(S(=O)(=O)c3ccc(C)cc3C)CC2)cc1	·	-14	4051	-9	-2	4.0	4
Cn1nc(-c2ccc(Cl)cc2)c2cc(C(=O)N3CCN(C(=O)c4ccco4)CC3)sc21	-4	-15	6533	·	·	3.1	16
CCOc1cc(NC(=O)c2ccco2)c(OCC)cc1NC(=O)CCC(=O)NCc1cccnc1	·	-18	19666*	8	8	5.0	1
COC(=O)c1cc(OC)nc(OC)c1	-11	-21	5806	-1	-3	4.0	5
Cc1nc2cc(NS(=O)(=O)c3c(C)c(C)cc(C)c3C)ccc2s1	3	3	3227	14	12	6.0	-7
O=C1CCC(CCC(=O)N2CCCC(C(=O)c3cccc(C(F)(F)F)c3)C2)=NN1 (stereo not given)	-11	-3	2491	-5	-5	-3.3	2

Continued, starting with the last four of the part before.
SMILES	BJeLR lethal	PrP 5UTR inh	Bead autofluor	Mtb hypoxia rep	Mtb hypoxia rep growth	RN4220 kill	ugtP null kill
CCOc1cc(NC(=O)c2ccco2)c(OCC)cc1NC(=O)CCC(=O)NCc1cccnc1	·	-18	19666*	8	8	5.0	1
COC(=O)c1cc(OC)nc(OC)c1	-11	-21	5806	-1	-3	4.0	5
Cc1nc2cc(NS(=O)(=O)c3c(C)c(C)cc(C)c3C)ccc2s1	3	3	3227	14	12	6.0	-7
O=C1CCC(CCC(=O)N2CCCC(C(=O)c3cccc(C(F)(F)F)c3)C2)=NN1 (stereo not given)	-11	-3	2491	-5	-5	-3.3	2
O=C(C[n+]1ccc(-c2nnc3n2CCC3)cc1)c1ccc(Cl)cc1	1	-20	1836	-3	-4	-2.5	0
CCN1C(=O)/C(=C/N(C)c2ccccc2)OC1=S	-1	-51	9794	6	13	8.0	-9
O=C(CSC1c2ccccc2-c2ccccc21)N/N=C/c1ccc(C(=O)O)cc1	4	-5	2612	·	·	·	·
CC(NC(=O)Nc1ccc(Cl)c(Cl)c1)C(c1ccccc1)N1CCOCC1 (stereo not given)	-3	-5	2064	2	16	0.8	-12
CCOC(=O)N/C(N)=N/c1nc2ccccc2s1	-1	-61	8696	5	6	-2.2	-5
Cn1cnnc1SCCNS(=O)(=O)c1ccccc1	-11	-28	3287	8	12	1.5	2
Cc1ccc(C(=O)OCC(=O)c2c[nH]c3ccccc23)cc1S(=O)(=O)N1CCOCC1	·	2	6392	-4	7	3.1	-7
CC[C@]12c3[nH]c4cc(-c5ccco5)ccc4c3CCN1C(=O)[C@@H](CC(=O)NCc1ccc(OC)c(OC)c1)C[C@@H]2C(=O)N1CCN(C(=O)c2ccco2)CC1	·	-16	4102	-9	8	0.8	-3
O=C(CSc1ccc2nnc(-c3ccccn3)n2n1)Nc1ccc(F)cc1	-1	3	5898	8	11	-0.3	1
Cc1ccc(C(=O)N/C(=C/C=C/c2ccccc2)C(=O)NCc2ccco2)cc1	-3	7	2504	·	·	·	·
COc1ccc(S(=O)(=O)Nc2ccccc2)cc1OC	-6	-15	9426	5	1	4.0	0
O=S(=O)(NC1CCSc2ccccc21)c1ccc(Cl)nc1 (stereo not given)	-10	-43	6474	-11	2	3.0	-1
Cc1cc(C)c2cc(CN(Cc3nnnn3C3CCCCC3)CC3CCCO3)c(=O)[nH]c2c1 (stereo not given)	-7	-10	10995	-22	-1	-1.1	-5
O=C(O)c1cc(-c2ccccc2)nc2nc(N3CCCCC3)sc12	-13	·	·	17	6	4.9	9
O=C(O)c1cc([N+](=O)[O-])cc2c1C=Cc1ccccc1O2	-8	-9	3734	9	-2	5.9	14
Cc1cc(C(=O)NCc2ccccc2)no1	·	-20	15472	8	9	-1.1	-2
Cc1ccc(NC(=S)NN=Cc2ccc(OCCC(C)C)cc2)c(C)c1	·	·	·	-16	-4	2.5	0
O=c1[nH]c(SCc2ccccc2)nc2[nH]ncc12	-1	-14	2233	2	12	-0.1	2
O=C(Nc1nnc(-c2ccc3c(c2)CCCC3)o1)c1c(F)cccc1F	-5	-55	3421	6	-2	6.8	12
COc1cc(OC)cc(-c2nc(-c3ccccc3OC)no2)c1	14	-34	4688	3	3	8.0	3
Cc1cc(C)cc(NC(=O)N2CCCN(c3c(Cl)cncc3Cl)CC2)c1	-3	-7	3740	4	8	0.4	6
Cc1nc2scc(-c3cccs3)c2c(=O)[nH]1	16	-33	25937*	9	3	7.0	0
Cc1cc(C(=O)N(NC(=O)C(C)C)c2ccccc2)cs1	6	-16	4246	7	4	8.4	-2
COc1ccc(-n2ccnc2SCC(=O)NCc2ccc3c(c2)OCO3)cc1	-7	-2	2810	·	·	1.0	1
COn1c(=S)[nH]c2ccccc2c1=O	·	-2	22258*	5	6	5.2	8
SMILES	BJeLR lethal	PrP 5UTR inh	Bead autofluor	Mtb hypoxia rep	Mtb hypoxia rep growth	RN4220 kill	ugtP null kill
O=C(Nc1ccccc1C(=O)N1CCCCC1)c1cccc(S(=O)(=O)N2CCOCC2)c1	-6	-5	3186	-4	9	14	-1
CN(CCOc1ccc(Cl)cc1)CC(=O)Nc1ccc(OC(F)F)cc1	-4	·	2877	-11	8	-2.3	-19
CC(=O)c1cc(C(C)=O)c(C)[n+](C)c1C	-10	-26	5408	0	5	1.3	3
CCOC(=O)N1CCN(c2c(NCc3ccccn3)c(=O)c2=O)CC1	0	2	4785	9	6	-1.1	4
COc1ccccc1-c1c(C)nn2c(N3CCC(C)CC3)cc(C)nc12	6	-14	3884	10	4	2.6	8
CCOc1ccc2nc(COC(=O)c3cccc([N+](=O)[O-])c3)c(C(C)=O)[n+]([O-])c2c1	-2	·	·	1	4	1.5	5
O=C1c2nccnc2C(=O)N1c1ccc(C(F)(F)F)cc1	2	-18	4324	·	·	·	·
Cn1c(=O)c2c(ncn2CC(=O)N2CCCc3ccccc32)n(C)c1=O	0	-6	4377	·	·	1.2	2
CCOc1ccc(S(=O)(=O)N2CCC(C(=O)NCCc3ccc(OC)c(OC)c3)CC2)cc1	-1	-16	4219	-4	2	-1.9	2
CCOC(=O)c1ccc(NC(=O)CCNc2c(N3CCCC3)c(=O)c2=O)cc1	-4	5	3632	·	·	-0.2	4
c1ccc(-n2nnnc2SCc2cn3cccnc3n2)cc1	-18	-11	23611*	8	5	2.1	2
CCOC(=O)c1cnc2c(c(C)nn2C)c1Oc1cc(Cl)cc(Cl)c1	-3	-11	4925	-1	16	0.2	40
COc1ccc(Cl)c2sc(N(Cc3cccnc3)C(C)=O)nc12	-9	-11	5206	-12	2	-1.0	-6
CNc1[nH]c(=O)[nH]c(=O)c1N=Nc1cc(Cl)ccc1Cl	-9	·	·	6	-7	-1.7	-8
N#C/C(=C\c1ccc(OCc2cccc(C(=O)O)c2)cc1)C(=O)NCc1ccco1	5	-59	5085	-4	5	2.4	10
COc1ccccc1C1N(c2cc(Cl)ccc2OC)C(=O)C2CCCN21 (stereo not given)	-6	-19	5548	·	·	-3.7	-9
C=CCNC(=S)NN=Cc1ccc(C(C)(C)C)cc1	·	·	·	1	2	6.1	7
CSCCC(NC(=O)c1ccc(Cl)cc1Cl)C(=O)NNC(=O)c1ccncc1 (stereo not given)	·	-15	3793	6	-6	3.8	5
COc1ccc(C2CC(=O)N3CN(Cc4ccco4)CSC3=C2C#N)cc1 (stereo not given)	1	-7	20177*	-7	3	-4.2	-8
Cc1ccc([N+](=O)[O-])cc1S(=O)(=O)N1CCCCC1C(=O)O (stereo not given)	0	-15	4647	4	-1	2.5	6
Cc1cccc(CSc2ncccc2C(=O)O)c1	-4	-30	11577	8	-4	8.5	-10
COc1ccc(S(=O)(=O)NCC(=O)O)cc1C(=O)NC1CCCCC1	-5	-16	2580	-4	-2	2.1	2
COc1ccc2[nH]cc(CCNC(=O)Nc3ccccc3)c2c1	-1	-24	3038	-6	-7	-2.1	-2
CCSc1nc(-c2ccccc2)c(C#N)c(=O)[nH]1	-1	-22	9957	2	4	5.9	2
COc1ccc2nc3c(cc2c1)c(NC(=O)CC(C)C)nn3CC(C)C	6	-34	3121	-9	-1	3.2	14
SMILES	BJeLR lethal	PrP 5UTR inh	Bead autofluor	Mtb hypoxia rep	Mtb hypoxia rep growth	RN4220 kill	ugtP null kill
O=S(=O)(c1cnc(Cl)c(Cl)c1)N1CCN(c2ncccn2)CC1	10	-28	4745	17	2	4.8	-1
COc1ccc(C=NNC(=O)c2ccc(-c3ccccc3)cc2)cc1COC(C)=O	·	·	·	-3	-3	3.8	0
C=CCSc1nc2c(c(=O)[nH]c(=O)n2C)n1C(C)C	2	-6	3578	·	·	3.7	-9
CCOC(=O)Cn1nc(-c2ccc(F)cc2)cc(Cc2ccccc2)c1=O	-1	-26	3888	-1	-4	-2.0	7
C#CCOCCOCCOCCNc1nc(N2CCN(C(=O)[C@H]([C@@H](C)CC)n3cc([C@@H](N)CC(C)C)nn3)CC2)nc(N2CCN(C(=O)[C@H](CCCCN)n3cc([C@@H](N)C(C)CC)nn3)CC2)n1 (stereo not given in full)	-4	-10	4951	·	·	·	·
CC1(C)Cc2nc(-c3ccccc3)nc(SCC(=O)N3CCOCC3)c2CO1	-5	-6	5798	7	8	1.9	2
COc1ccc(NC(=O)CS(=O)(=O)c2cn(CC(=O)N(C(C)C)C(C)C)c3ccccc23)c(OC)c1	-13	-14	4946	7	-3	4.1	7
O=C(NCc1cccs1)c1noc2c1CCCCC2	-1	-51	16908*	19	5	4.3	10
COc1cccc(C2Nc3ccccc3C(=O)N2O)c1O (stereo not given)	-4	-8	3409	2	-1	3.8	-7
CCOC(=O)C1(Cc2ccccc2C(F)(F)F)CCN(Cc2ccon2)CC1	-5	-5	4209	3	11	8.8	19
COc1ccc(Nc2c(-c3ccc(OC)cc3)nc3cnccn23)cc1	6	-7	3302	5	-8	3.9	2
CN(C)S(=O)(=O)c1ccc(Cl)c(C(=O)Nc2nc3ccccc3[nH]2)c1	-2	-25	3793	-8	3	2.0	-5

Source: PubChem BioAssay (several laboratories)
